Screening results deposited in PubChem by National Center for Advancing Translational Sciences (NCATS).
YjeE inh = YjeE (TsaE) inhibition, E. coli; AID 605; Potency, µM; purified YjeE, fluorescence polarisation of a bound ADP probe; actives 0.05% (n = 71,000); active = well fitted falling curve; inconclusive = weaker or top-dose-only fall, or a rising curve; inactive = flat or poorly fitted curve;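 further: top concentration of the series not given in the record; excess ADP was the control for the full effect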
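Purified YjeE (10 uM) with BODIPY Texas Red-labeled ADP probe (2 uM); compounds pin-transferred, 15 min at room temperature. Binding inhibition read as decreased fluorescence polarization; ADP titration as control.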
PK Bst = alters activity of Bacillus stearothermophilus pyruvate kinase; actives 1.2% (n = 51,000); Potency, µM; partly purified Bacillus stearothermophilus pyruvate kinase, luminescence ATP production; ribose 5-phosphate activator present at AC10; AID 361; in the data active means potency below about 11 µM; inconclusive means mostly about 12 µM to 25 µM; inactive means weaker than that;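 the screen sought inhibitors and activators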;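 further: potency means the concentration at half of the fitted maximal effect; scaled between full activation by ribose 5 phosphate and full inhibition by luteolin; about four in five hits inhibit and the cells do not say which; series up to 57 µM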
* = called active by the depositor; i = inactive; ? = inconclusive; . = no result given. The list is partial; the hit share may differ from the screen's.

SMILES | YjeE inh | PK Bst
COc1cc(CCC(=O)Nc2cc(Cl)ccc2N2CCN(C)CC2)cc(OC)c1OC | i | >57
CC(C(=O)NCC1(c2ccccc2)CCCC1)N1CCCC1 (stereo not given) | i | >57
Cn1c(=O)c2c(nc(CN3CCN(Cc4ccccc4)CC3)n2Cc2cccc(Cl)c2)n(C)c1=O | i | .
O=C1OC(N2CCN(C/C=C/c3ccccc3)CC2)c2ccccc21 (stereo not given) | . | >25.6
COc1ccc(C2C3=C(CC(C)(C)CC3=O)Oc3ncn(CCCn4ccnc4)c(=N)c32)cc1 (stereo not given) | i | >57
CCn1c(=O)cc(N2CCC3(CC2)OCCO3)[nH]c1=O | i | .
Cc1cccc(NC(=O)C(C)Oc2ccccc2C)n1 (stereo not given) | i | .
O=C(O)C1[C@H]2C(=O)N(C3CCCC3)C[C@]23C=C[C@H]1O3 (stereo not given in full) | i | >57
COc1ccc(C2C3=C(CCCC3=O)Nc3nc(SCc4ccccc4)nn32)cc1OC (stereo not given) | i | >57
Cc1ccc(-c2nnn(CC(=O)Nc3ccc4nn(-c5ccccc5)nc4c3)n2)o1 | i | >57
CC(=O)Nc1ccc(Oc2nc(C)cc(C)n2)cc1 | i | >57
N=C1C(c2nc3ccccc3[nH]2)=C(O)CN1c1ccccc1 | i | .
O=c1c2cc3c(=O)n(CC4CCCO4)c(=O)c3cc2c(=O)n1CC1CCCO1 (stereo not given) | i | >57
Cc1nnc2ccc(N3CCC4(CC3)OCCO4)nn12 | i | >57
N#CC1(c2ccccc2)CCCN1C(=O)c1ccco1 (stereo not given) | i | .
O=C(CSc1nc2ccccc2c(=O)[nH]1)Nc1ccc(S(=O)(=O)N2CCCC2)cc1 | i | >57
O=C(Cc1c(O)c2ccccc2[nH]c1=O)NCc1ccccc1F | i | >57
Cn1c(N)c(C(=O)COC(=O)c2ccc3c(c2)OCCO3)c(=O)n(C)c1=O | i | >57
COc1ccc(S(=O)(=O)Nc2ccc(S(=O)(=O)N3CCOCC3)cc2)cc1C | i | >57
COc1ccc(C(=O)N=c2nc3ccccn3s2)cc1 | i | 0.678*

The closing seven records of the part before lead into the next:
SMILES | YjeE inh | PK Bst
Cc1nnc2ccc(N3CCC4(CC3)OCCO4)nn12 | i | >57
N#CC1(c2ccccc2)CCCN1C(=O)c1ccco1 (stereo not given) | i | .
O=C(CSc1nc2ccccc2c(=O)[nH]1)Nc1ccc(S(=O)(=O)N2CCCC2)cc1 | i | >57
O=C(Cc1c(O)c2ccccc2[nH]c1=O)NCc1ccccc1F | i | >57
Cn1c(N)c(C(=O)COC(=O)c2ccc3c(c2)OCCO3)c(=O)n(C)c1=O | i | >57
COc1ccc(S(=O)(=O)Nc2ccc(S(=O)(=O)N3CCOCC3)cc2)cc1C | i | >57
COc1ccc(C(=O)N=c2nc3ccccn3s2)cc1 | i | 0.678*
CC(=O)c1cccc(NS(=O)(=O)N(C)C)c1 | i | >57
Cc1nnc(SCC(=O)N2c3ccccc3Sc3ccccc32)n1N | i | >57
Cc1ccc(C2C=C(c3ccccc3OC(F)F)Nc3ncnn32)cc1 (stereo not given) | i | >57
Cc1cc(Nc2ccccc2)n(CCC#N)n1 | i | >57
CN(C)c1ccc(NC(=O)CN2CCN(S(=O)(=O)c3cc(Cl)ccc3Cl)CC2)cc1 | i | 9.45*
O=C(CCn1nc(-c2ccc(Cl)cc2)ccc1=O)NCc1ccccn1 | i | >57
CCOC(=O)c1[nH]c(C)c(C(=O)N2CCN(c3ccc(F)cc3)CC2)c1C | i | >57
O=S(=O)(c1ccccc1)c1nc(-c2cccs2)oc1NCC1CCCO1 (stereo not given) | i | >57
CC(=O)c1cccc(NC(=O)c2ccc(Br)o2)c1 | i | .
Clc1ccc(SCCn2ccnc2)cc1 | i | .
O=C(CN1C(=O)COc2ccc(Cl)cc21)N1CCc2ccccc21 | i | >57
Cc1cc(C)c(C#N)c(SCc2ccccc2C(=O)O)n1 | i | >57
CCOC(=O)c1[nH]c(C)c(C(=O)N2CCN(c3ccccc3)CC2)c1C | i | >57
CN(C)c1ccc(-c2nccc(NCCN3CCOCC3)n2)cc1 | i | .
Cn1c(SCCSc2nnc(-c3ccccc3)n2C)nnc1-c1ccccc1 | i | .
CCOC(=O)C(CC)Sc1nc2c(c(=O)[nH]c(=O)n2C)n1C/C=C(/C)Cl (stereo not given) | i | >57
Cc1c(-c2ccccc2)nc2ccccc2c1C(=O)O | i | >57
CCn1c(=O)c2ccccc2n2c(SCC(=O)N3CCCc4ccccc43)nnc12 | i | >57
NC(=O)COC(=O)C(Cc1ccccc1)NS(=O)(=O)c1ccccc1F (stereo not given) | i | >57
O=C1CCc2cc(S(=O)(=O)N3CCC(C(=O)NCc4ccccn4)CC3)ccc2N1 | i | .
Cn1c(SCC(=O)NCc2ccc3c(c2)OCO3)nnc1-c1c[nH]c2ccccc12 | i | >57
O=C(NCc1cccnc1)c1cn(CCc2ccccc2)nn1 | i | >57
CSc1nc(SCC(N)=O)c2c3c(sc2n1)CN(C)CC3 | i | >57
CCOC(=O)c1ccc(NC(=O)CC2OCCN(CC)C2=O)cc1 (stereo not given) | i | >57
OCc1ccc(-c2nn(Cc3ccccc3)c3ccccc23)o1 | i | .
CCOCCCNc1ncnc2c1[nH]c1ccccc12 | i | .
Cc1cccc2cc(C#N)c(NCCCn3ccnc3)nc12 | i | >57
CCc1nc(C)cn1S(=O)(=O)c1cc(OC)c(C)cc1C | i | >57
CCCNC(=O)NC(=O)COC(=O)c1ccc(OC)c(S(=O)(=O)N2CCCc3ccccc32)c1 | i | >57
COc1ccccc1CNS(=O)(=O)c1ccc2c(c1)oc(=O)n2C | i | .
Oc1ccc(Br)cc1-c1cc(-c2ccccc2F)[nH]n1 | . | >25.6
CCC(C)(C)NC(=O)C(c1ccc(C)o1)N(Cc1cccs1)C(=O)Cn1nnc2ccccc21 (stereo not given) | i | >57
C=CCNc1nc(N)c(C(=O)c2ccc3c(c2)OCO3)s1 | i | >57
CCn1c(NCc2cccc(OC)c2OC)nc2ccccc21 | i | >57
O=C(CCc1nc2ccccc2[nH]c1=O)OCc1ccc(S(=O)(=O)N2CCOCC2)cc1 | i | >57
CC1CN(C(=O)Nc2ccc3snnc3c2)c2ccccc21 (stereo not given) | i | .
O=C(Nc1ccccc1)OC1C2CCC1C(N1CCCCC1)CC2 (stereo not given) | i | >57
COc1cc(C)c(Cl)cc1S(=O)(=O)NCc1ccco1 | i | >57
CCOC(=O)Cn1c(N2CCCCCC2)nc2c1c(=O)[nH]c(=O)n2C | i | >57
O=C(CN1C(=O)CCS(=O)(=O)c2ccccc21)NCc1ccc2c(c1)OCO2 | i | >57
CCCN1Cc2cccc(C(=O)NC3CCCC3)c2C1=O | i | >57
OC(CNCCCN1CCCCC1)COc1ccccc1 (stereo not given) | . | >11.4
O=C1CN(C(=O)c2ccco2)C(c2ccc(F)cc2)c2cc(Cl)ccc2N1 (stereo not given) | i | >57
COc1ccc(C2C3=C(CC(C)(C)CC3=O)Nc3n[nH]c(C)c32)cc1 (stereo not given) | i | >57
CCCS(=O)(=O)N1CCCC(C(=O)NC2CCCCC2)C1 (stereo not given) | i | >57
CCOC(=O)c1[nH]c2ccccc2c1NC(=O)CN(C)C | . | >25.6
CC(=O)Nc1ccc(OCC(O)Cn2nc(C)c(C(C)=O)c2C)cc1 (stereo not given) | i | >57
Cc1cc(C)n(C(=O)CCC(=O)NCc2ccccc2)n1 | i | >57
Nn1c(SCc2csc(-c3ccccc3)n2)nnc1-c1cccs1 | i | >57
C=CCNc1oc(-c2cccc3ccccc23)nc1C#N | i | >57
Cc1oc(CC(C)C)c(CN2CCCC2)c1C(=O)O | i | >57
O=C(CSc1nnc2n(C3CCCCC3)c(=O)c3ccccc3n12)OC1CCCCC1 | i | >57
Cc1cc(C(F)F)n2nc(C(=O)Nc3c(F)cc(F)cc3Br)nc2n1 | i | >57
COC(=O)[C@H](CCSC)NC(=O)Nc1ccc(C(C)=O)cc1 | i | >57
CCc1nc(NC2CCCCC2)c(C#N)c2c1COC(C)(C)C2 | . | >25.6
Cc1ccc(C)c(N2CCN(C(=O)C3CCN(S(=O)(=O)c4cccc5nsnc45)CC3)CC2)c1 | i | >57
O=C(Nc1nnc(SCc2ccccc2F)s1)c1ccco1 | . | >25.6
Cc1cccc(N2CCN(C(=O)c3ccc(N4CCCC4=O)cc3)CC2)c1C | i | >57
Oc1ccc2cccnc2c1 | i | >57
CCOC(=O)N1CCN(c2c(NCC3CCCO3)c(=O)c2=O)CC1 (stereo not given) | i | .
Next compounds follow.
SMILES | YjeE inh | PK Bst
C=CCOC(=O)c1[nH]c2c(c1C)C(=O)CC(c1cc(OC)c(OC)c(OC)c1)C2 (stereo not given) | i | .
Cc1cc(C(=O)OCC(=O)c2ccc(Br)s2)c(C)o1 | i | >57
COc1ccccc1-c1nnc2n1N=C(c1ccc(O)c(O)c1)CS2 | . | i
Cc1ccn2cc(C(=O)Nc3nnc(C)s3)nc2c1 | i | >57
Cc1ccc(C2CC(C(F)(F)F)n3ncc(C(N)=O)c3N2)cc1 (stereo not given) | . | >25.6
Cc1nc(CNS(=O)(=O)c2cc(C)c(C)cc2C)cs1 | i | ?
Cc1ccc(/C=C/S(=O)(=O)N2CCC(C(=O)O)CC2)cc1 | i | >57
O=C(c1noc2c1CCCC2)N1CCN(Cc2ccccc2)CC1 | i | >57
O=C(c1ccc(S(=O)(=O)N2CCCCC2)cc1)N1CCCc2ccccc21 | i | >57
Nc1nnc(SCC(=O)N2CCc3ccccc32)n1-c1ccccc1 | i | >57
COc1ccc(NC(=O)N2CC[C@@]3(CCCN(C(=O)c4csnn4)C3)C2)cc1 | i | .
O=C(NCCCN1CCOCC1)c1cc2c(=O)[nH]c3ccccc3c2s1 | i | ?
COc1ccc(OC)c(N(CC(=O)Nc2cccnc2)S(=O)(=O)c2ccc(OC)c(OC)c2)c1 | i | >57
Cc1ccc(C2CC(=O)c3cnc(N4CCN(c5ccccc5)CC4)nc3C2)cc1 (stereo not given) | i | >57
COc1ccc(CN(Cc2cc3cccc(C)c3[nH]c2=O)C(=O)N(C)C)cc1 | i | >57
CCOC(=O)c1cc(C(=O)OCC)cc(-n2c(C)cc(C(=O)CN3CCOCC3)c2C)c1 | i | >57
O=C(Nc1ccccc1OC(F)F)c1ccccc1 | i | >57
CCOC(=O)c1cccc(NC(=O)CSc2nnc(C3CCCCC3)n2CC)c1 | i | >57
O=C(O)CSCc1ccc(Cl)cc1 | i | >57
COc1ccc(NC(=O)NCCN2CCN(c3cccc(Cl)c3)CC2)cc1 | i | .
O=S(=O)(O)c1cc(N=[N+]([O-])c2cc(S(=O)(=O)O)c3ccccc3c2)cc2ccccc12 | i | .
O=C(O)c1c(Cl)c(Cl)c(Cl)c(Cl)c1C(=O)Nc1ccc2cn[nH]c2c1 | i | .
CC(=O)c1cccc(NS(=O)(=O)c2c(C)n[nH]c2C)c1 | i | >57
CCCc1nn(CCc2ccccn2)c(N)c1CC | i | >57
COc1ccc(CCn2c(-c3ccco3)nc3nc4ccccc4nc32)cc1OC | i | >57
CCOc1ccccc1NC(=O)CSc1c(C)n[nH]c1C | i | >57
COc1ccccc1NCCC(=O)OCC(=O)NCc1ccco1 | i | >57
Cc1cc2c(c(=O)n1CCN(C)C)C(c1ccc(Cl)cc1)C(C#N)=C(N)O2 (stereo not given) | i | >57
COc1ccc(-c2[nH]nc3oc(=O)cc(C)c23)cc1 | i | .
Cn1c(=O)c2c(n(Cc3ccccc3)c1=O)NC(=O)C2CC(=O)N1CCc2ccccc2C1 (stereo not given) | i | >57
CCOC(=O)NCc1ccc2c(c1)OCO2 | i | >57
O=C(Oc1cccc(NC(=O)c2ccco2)c1)c1cccc(S(=O)(=O)N2CCCC2)c1 | i | >57
COc1ccc(C(=O)N2c3ccc(F)cc3CCC2C)cc1OC (stereo not given) | i | >57
CCOc1ccccc1NC(=O)C1CCCN(S(=O)(=O)c2c(C)[nH]c(=O)[nH]c2=O)C1 (stereo not given) | i | >57
COc1ccc(C2C(C(=O)c3ccc(C)o3)=C(O)C(=O)N2c2cc(C)on2)cc1OC (stereo not given) | i | >57
COc1ccc(CN(Cc2cc3cc(C)ccc3[nH]c2=O)C(=O)N(C)C)cc1 | i | >57
Cc1ccc(-c2nn(-c3ccccc3)cc2C(=O)N2CCOCC2)cc1 | i | .
O=C(CSc1nnc(Cc2cc(=O)[nH]c(=O)[nH]2)n1-c1ccc(Cl)cc1)NC1CCCC1 | i | .
CCCCNC(=O)Oc1cccc(N2CCCC2=O)c1 | i | .

Retrieved by structure from the list above:
SMILES | YjeE inh | PK Bst
Cc1ccc(-c2nn(-c3ccccc3)cc2C(=O)N2CCOCC2)cc1 | i | .
COc1ccc(C(=O)N2c3ccc(F)cc3CCC2C)cc1OC (stereo not given) | i | >57
CCOC(=O)NCc1ccc2c(c1)OCO2 | i | >57
CCCc1nn(CCc2ccccn2)c(N)c1CC | i | >57
COc1ccc(CCn2c(-c3ccco3)nc3nc4ccccc4nc32)cc1OC | i | >57
CCCCNC(=O)Oc1cccc(N2CCCC2=O)c1 | i | .
